Autofluor counter: compound fluorescence in toxin protease inhibitor counterscreen. compound autofluorescence counterscreen, microsphere flow cytometry; hits give high values. fluorescence intensity (no concentration beside the values). 3.1% of 360,000 active. AID 624483;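 active = at least 3 SD above the mean of all compounds, about 16000 in these data; inconclusive = too few beads counted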;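 also: 100 nL of 1 mM stock went into each well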
RN4220 kill: growth inhibition of S. aureus RN4220, primary screen, OD600; 16 h; inhibition, % (concentration not given with the values); 0.33% of 330,000 active;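 active = z-score of -3 or lower and OD600 up to 0.18 on both plates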;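 also: plate controls were untreated cells for no effect and reference antibiotic for full effect; stock transfer was 100 nL into about 80 µL; one replicate is shown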
Mtb hypoxia rep: PubChem AID 1159583; M. tuberculosis hypoxia-regulated fluorescent reporter, fluorescence; fluorescence inhibition, % (test concentration not listed); 0.1% of 300,000 active;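 active = 35 to 45% if threefold the growth effect, above 45% if 1.5-fold the growth effect; inactive = the rest, general growth blockers included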;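 also: wells of about 50 µL received 100 nL stock; 0% = vehicle wells and 100% = reference inhibitor wells; whole bacteria with a GFP reporter of the hypoxia response; strong numbers were not always called active; many hits fall short of the cut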
BJeLR viability: MLPCN primary cell-based screen for lethality selective to Ras in HRASV12 cells; BJeLR (HRASV12) viability, CellTiter-Glo ATP luminescence, 48 h; reference of the scale not given here; inhibition, % (no concentration beside the values); 0.17% of 300,000 active;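 active = replicate mean above 50%; inconclusive = above 50% but judged a plate artefact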;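 also: 50 nL library stock added to about 25 µL; numbers are from one replicate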
PrP UTR inh: inhibition of PrP 5' UTR reporter expression | cell-based PrP 5' UTR mRNA reporter, plate reader | inhibition, % (test concentration not listed) | 0.35% of 340,000 active | AID 488862, 2010;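 active = every replicate at 50% or more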;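 also: 0 = median of the neutral control wells; tested in H4 reporter cells; numbers are from one replicate; inactives centre near -14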
Sa ugtP lethal: growth inhibition of ugtP-null S. aureus, primary screen, RN4220 ugtP deletion, OD600. 16 h; some inactives read as strong as hits. growth inhibition, % (test concentration not listed). AID 1259309, 2017. 0.54% of 330,000 active;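 active = z-score under -3 and OD600 up to 0.15 on both plates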;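 also: plate controls were untreated wells for no effect and antibiotic for full effect; wells of about 80 µL received 100 nL stock; the first replicate is given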
Mtb hypoxia rep growth: further read-out of Mtb hypoxia rep, marked with its call; growth inhibition, %; measured here: M. tuberculosis growth (absorbance);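 0% = vehicle and 100% = reference antibiotic; read after six days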
Active calls of the source: *; ? = inconclusive; · = not tested or not shown.

SMILES	Autofluor counter	RN4220 kill	Mtb hypoxia rep	Mtb hypoxia rep growth	BJeLR viability	PrP UTR inh	Sa ugtP lethal
COc1ccc(C2CC=C(C(=O)O)C(c3ccc(Cl)cc3)N2S(=O)(=O)c2ccc(C)cc2)cc1OC (centres undefined)	·	12	-1	3	·	·	21
S=C(NCCc1ccccc1)NC1CC2CCC(C1)N2Cc1ccccc1 (centres undefined)	4124	1.2	-5	-1	2	-17	4
CC(C(N)=O)N1CC(c2ccccc2)CC1=O (centres undefined)	2401	-5.3	11	2	7	-2	4
Clc1ccc(-c2nnc(-c3ccccc3Cl)o2)cc1	17061*	5.3	26	20	-2	-107	-19
CC1Cc2ccccc2N1C(=O)c1cc2sccc2n1Cc1ccccc1 (centres undefined)	2849	-10	·	·	0	60*	3
CN1CCN(C(=O)c2cnn3c(C(F)(F)F)cc(-c4cccs4)nc23)CC1	1966	5.4	7	-2	-6	-23	9
Cn1c(Cc2nc(-c3cnccn3)no2)nnc1SCC(=O)Nc1ccccc1	4823	1.5	2	7	11	-17	-7
O=C(Cc1c(Cl)cccc1Cl)N1CCN(S(=O)(=O)c2cccs2)CC1	3835	3.4	1	3	·	-16	-3
CC(C)c1ccc(N(CC(=O)NC2CCCCC2)C(=O)CCC(=O)Nc2ccccn2)cc1	7222	4.5	-1	-1	-3	-9	-1
CN(C)C=Nc1nonc1-c1ncn[nH]1	3444	-4.1	·	·	16	-20	-2
Cc1ccc(NC(=S)NCCc2ccccc2)c(C)c1	2498	3.7	0	2	-5	-28	2
COc1cc(OC)c(C=NNC(=O)COc2cccc3cccnc23)c(OC)c1	·	2.8	4	3	·	·	16
Cc1ccsc1C(=O)N1CC=C(c2ccccc2)CC1	6471	0.9	2	10	5	-10	-1
COc1cccc(/C=N/Nc2ccc(Cl)nn2)c1OC	3447	·	·	·	-9	-36	·
COc1ccc(-c2cccc(NS(=O)(=O)c3cc([N+](=O)[O-])ccc3Cl)c2)nn1	6290	7.6	1	-3	-9	-11	-1
Cc1cc(C(=O)O)c(C)n1Cc1ccncc1	4333	3.5	-3	4	-2	-24	6
CC(C)CN(C(=O)C1CC1)c1c(N)n(Cc2ccccc2)c(=O)[nH]c1=O	5612	1.0	6	-6	8	-13	6
Cc1c(C(=O)Nc2cc(S(=O)(=O)N3CCOCC3)ccc2N2CCOCC2)oc2ccccc12	4543	6.6	-7	-5	-13	-21	1
CCCOc1ccc(Cn2ccnc2)cc1[N+](=O)[O-]	10657	5.0	5	-7	-23	-31	3
Cc1ccc(S(=O)(=O)CCc2nnc(NC(=O)c3ccccn3)s2)cc1	2721	-3.0	·	·	10	-24	-15
O=C(OCCCC(=O)N1CCOCC1)c1ccccc1	4386	2.9	7	7	0	-19	4
Cc1cc(NC(=O)CCSc2ccccc2)no1	4787	13	-10	-5	·	7	2
CC(C)CC(C(=O)O)N1C(=O)C2C3C=CC(C2C1=O)C1C(=O)N(C(CC(C)C)C(=O)O)C(=O)C31 (centres undefined)	6296	1.4	4	-6	-5	-8	9
COc1ccc(C(=O)COc2ccc(NC(C)=O)cc2)cc1	5629	4.1	8	10	0	5	2
COc1ccc(S(=O)(=O)N2CCCCCC2)cc1N(C)S(=O)(=O)c1ccc(C)cc1	7376	6.5	6	4	5	-33	0
COc1ccc(OC)c(Nc2nc(C3CC3)nc3c2nnn3Cc2ccccc2)c1	2981	-14	2	5	-2	-16	-6
O=C(Nc1ccccc1)O/N=C(\c1ccccc1)c1ccccn1	6969	·	·	·	1	-27	·
O=C(Nc1ccc(-n2ccc(C(F)(F)F)n2)cc1)Nc1cccc(Cl)c1	6124	·	·	·	2	-63	·
COc1ccc(OCc2nc(N)nc(Nc3cccc(C)c3C)n2)cc1	2574	-1.3	·	·	·	-11	14
O=C1CC(c2ccccc2)n2nc(NC(=O)c3cccnc3)nc2N1 (centres undefined)	·	15	-7	-4	-3	·	14
Cc1cc(-c2cc(-c3ccc(Cl)cc3)on2)nc(NCC2CC2)n1	4403	0.6	7	6	1	-19	-3
CC(Sc1nnnn1C)C(=O)NC1CCCC1 (centres undefined)	4236	2.3	3	8	·	-23	1
CCCOc1ccc(N2C(=O)CC(N3CCC(C(=O)OCC)CC3)C2=O)cc1 (centres undefined)	9558	6.7	5	8	-5	-15	9
O=C(CCNS(=O)(=O)c1ccc(F)c(Cl)c1)NCc1ccccc1F	3899	6.3	8	-6	·	-6	1
O=C1NC(CCc2ccccc2)C(=O)N1Cc1ccccc1Cl (centres undefined)	10346	·	·	·	0	-14	·
CCN(CC)CCN(C(=O)c1ccc2c(c1)CCCC2)c1nc2ccc(C)cc2s1	5367	-9.3	-12	-7	-1	3	1
Cn1c(N)c(C(=O)Nc2ccc(-c3ccccc3)cc2)sc1=S	4589	3.3	1	3	-9	-13	-8
CN(CC(=O)Nc1ccc(F)c(F)c1F)C(=O)CCc1nc2sc3c(c2c(=O)[nH]1)CCCC3	5866	4.1	1	-3	1	-18	7
CC1CCN(c2ccc(-c3cccc(NC(=O)C(F)(F)F)c3)nn2)CC1	4436	·	·	·	11	83*	·
Cc1ccccc1-c1nc(-c2cccnc2)no1	8602	9.1	3	10	-4	-69	6
CN1CC(C(=O)c2ccccc2)C(c2ccccc2)C1 (centres undefined)	4021	1.5	17	7	-2	-24	10
C[C@@H]1COC(=O)CCC/C=C\C[C@@H](CC(=O)N(CCO)Cc2ccccc2)C(=O)N1	3424	0.9	7	3	·	-6	-1
Cc1ccc(S(=O)(=O)Nc2nc3ccccc3nc2NCc2ccco2)cc1	8494	10	-2	4	-14	-48	-12
CCN(C(=O)COC(=O)c1ccc2ccccc2n1)c1c(N)n(Cc2ccccc2)c(=O)[nH]c1=O	?	1.1	0	-1	·	-3	0
COc1ccc(S(=O)(=O)N(CCc2ccccc2)CC(=O)O)cc1OC	9797	6.6	6	5	-14	-32	-3
CCC(=NNS(=O)(=O)c1ccc(Cl)cc1)c1ccc(O)cc1	·	3.3	-2	3	·	·	4
COC(=O)CSc1nnc(-c2ccccc2O)n1-c1ccc(C)cc1	3846	0.6	1	-2	-13	-11	1
CCOc1ccc(/C=C2\SC(=S)N(CCC(=O)N(CCO)c3ccccc3)C2=O)cc1	4319	0.4	0	4	1	-10	-2
Cc1[nH]c2ccccc2c1/C=N/NC(=O)C1CC1(c1ccccc1)c1ccccc1 (centres undefined)	14768	·	·	·	-1	-19	·
COc1cc2c(C#CCO)c(-c3ccc(C#N)cc3)oc(=O)c2cc1OC	3858	7.3	3	10	·	0	6
CC(=O)c1cc2c(cc1NC(=O)C1CN(C(C)=O)c3ccccc3O1)OCO2 (centres undefined)	3519	4.5	6	8	·	-16	-4
Cc1ccc(C(=O)NCC(=O)OC(C)C(=O)Nc2ccc(N(C)C)cc2)s1 (centres undefined)	4300	-1.0	21	-5	·	-5	2
N#Cc1c(NC(=O)c2ccc(Br)o2)n(-c2ccccc2)c2nc3ccccc3nc12	4362	23	-9	0	27	-17	23
Cc1noc(C)c1COc1cccc(C(=O)Nc2ccc(OCc3ccccc3)cc2)c1	2742	19	3	5	-8	-2	8
COc1ccc(CSc2nnc(CNS(C)(=O)=O)o2)cc1	9901	1.8	8	2	3	-15	1
CCCOc1ccc(N2C(=O)CC(N(CCc3ccc(S(N)(=O)=O)cc3)C(C)=O)C2=O)cc1 (centres undefined)	4289	3.7	19	19	-14	-11	5
CCN(CC)CCNC(=O)C(=O)Nc1cc2c3c(c1)CCN3C(=O)CC2	6087	6.7	-3	8	3	-28	6
CCOC(=O)c1cnc(N)nc1C(F)(F)F	4000	-0.4	-3	-2	1	-21	2
CCN1CCN(S(=O)(=O)CC2(C)C3CCC2(C)C(=O)C3Br)CC1 (centres undefined)	4493	6.9	15	10	1	-24	7
Cc1cccc(NC(=O)CSc2nnc(-c3ccncc3)n2C)c1	9976	0.5	-2	0	-1	-14	0

Random excerpt: two records from the list, in no set order.
SMILES	Autofluor counter	RN4220 kill	Mtb hypoxia rep	Mtb hypoxia rep growth	BJeLR viability	PrP UTR inh	Sa ugtP lethal
Cc1ccc(C(=O)NCC(=O)OC(C)C(=O)Nc2ccc(N(C)C)cc2)s1 (centres undefined)	4300	-1.0	21	-5	·	-5	2
CCCOc1ccc(N2C(=O)CC(N(CCc3ccc(S(N)(=O)=O)cc3)C(C)=O)C2=O)cc1 (centres undefined)	4289	3.7	19	19	-14	-11	5

The list continues:
SMILES	Autofluor counter	RN4220 kill	Mtb hypoxia rep	Mtb hypoxia rep growth	BJeLR viability	PrP UTR inh	Sa ugtP lethal
Cn1cccc1C=NNC(=O)Cc1ccc(Br)c2ccccc12	·	-2.0	-12	-10	·	·	-15
NNC(=O)COc1cccc2cccnc12	4119	1.3	·	·	-2	-2	6
CCCCC1=NN(C(=O)c2ccco2)C(O)(C(F)(F)F)C1 (centres undefined)	4937	17	-9	10	7	-8	-2
COc1ccc(CNC(=O)CCC(=O)Nc2ccc(Cl)cc2)cc1	3991	0.6	20	14	8	-19	7
COc1ccc(OC)c(C(=O)NC(CC(N)=O)c2ccc(NCCN3CCCC3)c([N+](=O)[O-])c2)c1 (centres undefined)	3993	9.0	17	7	-4	0	2
Cc1cccc[n+]1C1C(c2ccccc2)C(C#N)=C(C(=C=[N-])C#N)NC1(O)C1CC1 (centres undefined)	2906	-12	·	·	-7	-18	-11
O=C(c1ccco1)N1CCN(Cc2ccc(F)cc2Cl)CC1	4365	4.4	14	-3	-3	-48	12
NC(=O)c1ccc(C(=O)NN=Cc2cccc(Oc3ccccc3)c2)cc1	·	2.8	5	-3	·	·	2
COc1cc(-c2nc(-c3ccc(NC(=O)c4ccc5c(c4)OCO5)cc3)no2)cc(OC)c1OC	3761	0.4	-4	2	2	-90	-5

Structural class: the compounds so far with an aryl methoxy group (14)
SMILES	Autofluor counter	RN4220 kill	Mtb hypoxia rep	Mtb hypoxia rep growth	BJeLR viability	PrP UTR inh	Sa ugtP lethal
COc1ccc(C2CC=C(C(=O)O)C(c3ccc(Cl)cc3)N2S(=O)(=O)c2ccc(C)cc2)cc1OC (centres undefined)	·	12	-1	3	·	·	21
COc1cc(OC)c(C=NNC(=O)COc2cccc3cccnc23)c(OC)c1	·	2.8	4	3	·	·	16
COc1cccc(/C=N/Nc2ccc(Cl)nn2)c1OC	3447	·	·	·	-9	-36	·
COc1ccc(-c2cccc(NS(=O)(=O)c3cc([N+](=O)[O-])ccc3Cl)c2)nn1	6290	7.6	1	-3	-9	-11	-1
COc1ccc(C(=O)COc2ccc(NC(C)=O)cc2)cc1	5629	4.1	8	10	0	5	2
COc1ccc(S(=O)(=O)N2CCCCCC2)cc1N(C)S(=O)(=O)c1ccc(C)cc1	7376	6.5	6	4	5	-33	0
COc1ccc(OC)c(Nc2nc(C3CC3)nc3c2nnn3Cc2ccccc2)c1	2981	-14	2	5	-2	-16	-6
COc1ccc(OCc2nc(N)nc(Nc3cccc(C)c3C)n2)cc1	2574	-1.3	·	·	·	-11	14
COc1ccc(S(=O)(=O)N(CCc2ccccc2)CC(=O)O)cc1OC	9797	6.6	6	5	-14	-32	-3
COc1cc2c(C#CCO)c(-c3ccc(C#N)cc3)oc(=O)c2cc1OC	3858	7.3	3	10	·	0	6
COc1ccc(CSc2nnc(CNS(C)(=O)=O)o2)cc1	9901	1.8	8	2	3	-15	1
COc1ccc(CNC(=O)CCC(=O)Nc2ccc(Cl)cc2)cc1	3991	0.6	20	14	8	-19	7
COc1ccc(OC)c(C(=O)NC(CC(N)=O)c2ccc(NCCN3CCCC3)c([N+](=O)[O-])c2)c1 (centres undefined)	3993	9.0	17	7	-4	0	2
COc1cc(-c2nc(-c3ccc(NC(=O)c4ccc5c(c4)OCO5)cc3)no2)cc(OC)c1OC	3761	0.4	-4	2	2	-90	-5

Screens as filed in PubChem BioAssay.
